Compound activity: PubChem, several laboratories
Yeast UUG start: modulators of yeast start codon fidelity, primary screen, whole organism, S. cerevisiae, single point, plate reader. hit rate 0.13% among 350,000. S. cerevisiae UUG-firefly luciferase reporter, luminescence/redox ratio. AID 602363, 2012. activity score, % at 18.7 µM;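 active means replicate mean at a twofold rise or more, about +100% in these data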;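 further: firefly luciferase made from a UUG start codon reports start codon fidelity; reporter light over untreated wells divided by growth signal over untreated wells; some hits fall short of that in this replicate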
MT1-MMP act inh: blockers of MT1-MMP proenzyme processing, primary screen, HT1080 RFP-PRO-GFP cells, GFP/RFP fluorescence. hit rate 0.061% among 360,000. GFP/RFP ratio fluorescence, overnight; percent of plate control window, DMSO zero. GFP/RFP ratio change, % at 20 µM. AID 651647, 2012;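 active means GFP/RFP ratio change of at least 30% with cell ATP level not reduced by more than half and red fluorescence within 50% of control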; further: strong numbers were not always called active
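Material: RFP-PRO-GFP reporter HT1080 cells. Dosing: single-point 20 µM compound, 1% DMSO. Controls: DMSO and RFP-L50D-GFP cell wells. Timing: cells overnight before dosing, compound overnight, 37 °C, 5% CO2. Measure: GFP/RFP fluorescence ratio.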
HIV Env fusion: inhibitors of HIV-1 Env-driven cell-cell fusion, primary screen, HeLa-JRFL effector, CEM21 target cells, luciferase; inhibition, % at 12.3 µM; hit rate 1.1% among 360,000; AID 651610, 2012;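 active means mean replicate inhibition score of at least 50 and every replicate individually at or above 50; inconclusive means only one of the two criteria met; inactive means mean below 50 and not all replicates reaching 50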;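 further: 0% = plate neutral controls and 100% = maraviroc near 300 nM; one replicate is shown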
eIF4H FP inh: human eIF4H binding inhibitors, primary screen, translation initiation inhibitor project, biochemical, uHTS, fluorescence polarization. Eukaryotic translation initiation factor 4H (Homo sapiens), Q15056. eIF4H fluorescence polarization binding assay. inhibition, % at 35 µM. hit rate 0.94% among 290,000. AID 2012, 2009;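 active means 50% or more with normal probe brightness, or confirmed in later tests; inconclusive means above 50% with abnormal brightness, or retests that disagree; inactive means below 50% or failed in later tests; about a fifth of its hits are not listed in these tables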;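 further: calls also rest on retests at 20 µM and on dose response follow-up; 0% = protein and probe with vehicle and 100% = probe without protein; strong numbers were not always called active; many hits fall short of the cut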
CSC inhib: cancer stem cell viability inhibitors, primary screen, luminescence | cancer stem cell-like cells viability | inhibition, % at 7.5 µM | hit rate 1.1% among 300,000 | AID 2717, 2010;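 active means mean at 75% or more and at least half the replicates too; inconclusive means mean and replicates disagree; tested in HMLE shEcad cells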;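 further: 0% = median of negative and 100% = median of positive control wells; the first replicate is given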
Rce1 inhib: yeast Rce1p protease inhibitors, primary screen, biochemical, fluorescence, cell-free homogeneous | CAAX prenyl protease 2 (Saccharomyces cerevisiae (strain ATCC 204508 / S288c)), Q03530 | hit rate 0.27% among 290,000 | calls only | yeast membranes, quenched prenylated peptide cleavage fluorescence;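 active means fall in fluorescence gain of 50% or more versus controls, with final raw signal at or below 3038400; inconclusive means same 50% fall but final raw signal above 3038400; inactive means fall in fluorescence gain under 50%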;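 further: plate controls were neutral control wells for no effect and wells lacking membranes for full effect; tested at 10 µM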
Target sequence (Q03530 whole entry, looked up): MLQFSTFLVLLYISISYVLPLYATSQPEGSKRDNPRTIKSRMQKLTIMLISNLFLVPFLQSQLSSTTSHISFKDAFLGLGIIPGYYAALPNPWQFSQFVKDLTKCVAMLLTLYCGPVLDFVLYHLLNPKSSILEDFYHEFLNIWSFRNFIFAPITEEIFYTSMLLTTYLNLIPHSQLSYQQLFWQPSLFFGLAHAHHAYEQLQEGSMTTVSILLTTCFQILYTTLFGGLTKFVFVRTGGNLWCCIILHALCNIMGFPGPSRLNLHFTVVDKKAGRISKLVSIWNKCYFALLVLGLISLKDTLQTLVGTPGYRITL
PABP polyA inh: PABP poly(A) RNA binding inhibitors, primary screen, biochemical, fluorescence polarization, uHTS. inhibition, % at 35 µM. hit rate 1% among 290,000. Polyadenylate-binding protein 1 (Homo sapiens), P11940;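 active means 50% or more with normal probe brightness, or confirmed in later tests; inconclusive means above 50% with abnormal brightness, or retests that disagree; inactive means below 50% or failed in later tests; about a fifth of its hits are not listed in these tables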;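 further: calls also rest on retests at 20 µM and on dose response follow-up; controls were probe without protein and protein plus probe with vehicle; some compounds called inactive have numbers as strong as hits; many hits fall short of the cut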
Target sequence (P11940 whole entry, looked up): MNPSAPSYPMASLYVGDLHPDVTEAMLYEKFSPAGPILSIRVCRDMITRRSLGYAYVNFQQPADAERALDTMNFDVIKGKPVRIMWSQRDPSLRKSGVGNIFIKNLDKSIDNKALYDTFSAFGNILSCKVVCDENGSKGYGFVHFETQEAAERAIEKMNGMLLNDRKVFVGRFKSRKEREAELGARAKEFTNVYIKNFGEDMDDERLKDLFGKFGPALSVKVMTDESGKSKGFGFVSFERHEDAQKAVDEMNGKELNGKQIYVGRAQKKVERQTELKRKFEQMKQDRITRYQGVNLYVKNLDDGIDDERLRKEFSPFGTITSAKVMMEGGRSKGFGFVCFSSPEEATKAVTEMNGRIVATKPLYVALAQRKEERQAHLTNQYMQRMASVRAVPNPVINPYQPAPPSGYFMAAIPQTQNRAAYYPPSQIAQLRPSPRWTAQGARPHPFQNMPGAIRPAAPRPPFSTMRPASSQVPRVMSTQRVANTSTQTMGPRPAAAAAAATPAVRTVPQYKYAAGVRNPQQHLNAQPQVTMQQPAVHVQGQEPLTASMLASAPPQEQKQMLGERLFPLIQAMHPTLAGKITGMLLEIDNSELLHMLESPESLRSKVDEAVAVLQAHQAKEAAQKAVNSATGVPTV
MT1-MMP act inh RFP: recorded beside MT1-MMP act inh, whose call it bears; RFP signal change, %; measured here: RFP expression control read;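 0 = vehicle wells; hits needed this value within 50% of zero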
* hit, by the source's call; i = inactive; ? = inconclusive; / = not tested or not shown; & = joins results of further samples. Only part of the results is shown; the hit share may differ from the screen's.

item | smiles | HIV Env fusion | MT1-MMP act inh | MT1-MMP act inh RFP | PABP polyA inh
1 | CC(C)(C)NC(=O)Nc1ccccc1C(N)=O | -13 | 2 | 2 | 3
2 | Cc1nccn1CC1CCc2c(c3ccccc3n2C)C1=O (stereo not drawn) | 7&-2 | 3&3 | 3&0 | 2
3 | CCOc1ccc(-n2c(COc3ccc(C)cc3)nnc2SCC(N)=O)cc1 | -55 | -3 | 1 | -3
4 | COc1ccc(-n2c(NNC(C)=O)nc3sc4c(c3c2=O)CCCC4)cc1 | 14 | -6 | 0 | -3
5 | Cc1cc(C)c[n+](CC(=O)c2ccccc2)c1 | -1 | -1 | 2 | -6
6 | COc1cccc(NC(=O)Cn2c3ccc(OC)cc3c3nc4n(c(=O)c32)CCS4)c1 | -25 | 3 | 1 | /
7 | CC(=O)Nc1ccc(NC(=O)c2ccc(COc3ccccc3Br)o2)cc1 | 2 | 12 | 9 | -8
8 | COc1ccc(OC)c(CN2CCN(C(=O)c3ccc(S(=O)(=O)N4CCCCCC4)cc3)CC2)c1 | 13 | 4 | -4 | /
9 | CCCCOc1ccccc1C1NC(=O)CCC1[N+](=O)[O-] (stereo not drawn) | 21 | -5 | -2 | 2
10 | Cc1cc(C)n(CC(=O)N/N=C/c2ccc([N+](=O)[O-])s2)n1 | 21 | -7 | -6 | -12
11 | O=C(Nc1nnc(-c2ccccc2)s1)c1ccccc1O | -36 | 14 | -28 | 3
12 | CC1(C)NC(=O)N(CCCOc2ccccc2Br)C1=O | -10 | 7 | 5 | -3

item | Rce1 inhib | eIF4H FP inh | CSC inhib | Yeast UUG start
1 | i | -5 | -9 | -18
2 | i | -5 | -2&15 | -14&-15
3 | / | 1 | -22 | -20
4 | i | -21 | -4 | 6
5 | i | -4 | -9 | -12
6 | i | / | 15 | -14
7 | i | -5 | 4 | -3
8 | / | / | / | -9
9 | i | 0 | -8 | -3
10 | i | 17 | -6 | /
11 | i | -4 | 33 | -4
12 | i | 3 | / | -6

The results go on:
item | smiles | HIV Env fusion | MT1-MMP act inh | MT1-MMP act inh RFP | PABP polyA inh
13 | CCOC(=O)Cn1c(=O)n(Cc2ccc(OC)cc2)c(=O)c2cccnc21 | 3 | -3 | 1 | -2
14 | Cc1ccc(N(CC(=O)NCc2ccco2)C(=O)CNS(=O)(=O)c2ccc(F)cc2)c(C)c1 | -2 | -1 | -7 | -6
15 | O=c1c2c(nc3c(-c4cccc5ccccc45)c[nH]n13)CCC2 | / | -8 | -5 | -2
16 | CC1=C[C@@H](C)[C@@H](c2ccc(C(F)(F)F)cc2)OC1=O | -9 | 4 | 4 | 8
17 | CC(=O)Nc1ccc(N2C(C(C)=O)=NN(c3ccccc3)C2c2cccs2)cc1 (stereo not drawn) | / | -5 | -2 | -5
18 | CCOC(=O)c1c(-c2ccc(C)s2)csc1NC(=O)c1cccs1 | -68 | 5 | 4 | 4
19 | CCOc1ccc(NC(=O)CSC2=NN3CCCC(=O)N=C3S2)cc1 | 2 | 1 | 2 | -1
20 | CC(=O)N(c1ccccc1)c1nc(/C=C/C(=O)O)cs1 | -5 | -2 | 1 | -7
21 | CC[N+](CC)(CCCCS(=O)(=O)[O-])CCNP1(=O)C=C(c2ccccc2)OC(c2ccccc2)=C1 | 12 | -5 | 2 | -2
22 | COCCCNC(=O)c1ccc2c(=O)n(Cc3ccccc3OC)c(=S)[nH]c2c1 | 9 | 2 | -2 | 1
23 | COc1ccccc1/C=C/C=N/NC(=O)c1ccncc1 | -4 | -1 | 0 | 6
24 | CC(C)[C@@H]1CC[C@@H](C)C[C@H]1O | 22 | 3 | 1 | /

item | Rce1 inhib | eIF4H FP inh | CSC inhib | Yeast UUG start
13 | i | -4 | -28 | -13
14 | i | -22 | 6 | 3
15 | i | 13 | 1 | -11
16 | i | -5 | -5 | -16
17 | i | 3 | 6 | -7
18 | i | -3 | 2 | 12
19 | i | -4 | 2 | -15
20 | i | 2 | -6 | 7
21 | i | 7 | -7 | /
22 | i | 0 | -11 | -8
23 | i | -8 | 13 | /
24 | / | / | / | -12

New compounds follow
item | smiles | HIV Env fusion | MT1-MMP act inh | MT1-MMP act inh RFP | PABP polyA inh
25 | CCc1ccc(NC(=O)C2CCN(S(=O)(=O)c3cccs3)CC2)cc1 | 10 | -2 | -12 | 6
26 | COc1ccc(C(=O)CSc2nc3nn(-c4ccccc4)c(=O)c-3c3n2CCCCC3)c(OC)c1 | 31 | 4 | 1 | /
27 | CC(=O)N1CCN(S(=O)(=O)c2cccc(C(=O)NNC(=O)c3ccc(Br)cc3)c2)CC1 | 8 | 2 | 3 | /
28 | Cc1nn(-c2ccccc2)c2c1C(c1cccc([N+](=O)[O-])c1)N(c1ccccc1)C(=O)N2 (stereo not drawn) | -3 | -13 | -3 | -10
29 | CCc1c(C)nc(N)n2c(SCC(=O)Nc3ccccc3OC)nnc12 | / | -4 | 0 | -8
30 | CCOc1ncccc1C(=O)N1CCN(S(=O)(=O)c2ccc3ccccc3c2)CC1 | 14 | 1 | -1 | 11
31 | C=CCN1CC(C)/C(=N\O)CC1C (stereo not drawn) | -3 | -1 | 3 | -16
32 | Cn1cccc1C(=O)OCc1cc(Cl)cc2c1OCOC2 | -77 | 2 | 3 | 7
33 | O=C(c1cc(O)c(O)c([N+](=O)[O-])c1)c1ccccc1F | 9 | 13 | -2 | /
34 | O=C(CCl)NCCN1C(=O)S/C(=C\c2cccnc2)C1=O | 3 | -4 | -5 | -4
35 | O=C(Nc1nnc(COc2ccccc2F)s1)Nc1ccccc1F | 3 | 5 | 0 | 0
36 | Cc1sc2ncnc(N3CCC(C(=O)Nc4nnc(CC(C)C)s4)CC3)c2c1C | / | -4 | -3 | /

item | Rce1 inhib | eIF4H FP inh | CSC inhib | Yeast UUG start
25 | / | -7 | 9 | -7
26 | / | / | / | -14
27 | / | / | / | -10
28 | i | -14 | -17 | -10
29 | i | 10 | -1 | /
30 | i | -10 | -5 | /
31 | i | -2 | -5 | /
32 | i | 10 | 6 | 4
33 | / | / | 6 | 6
34 | i | 8 | -10 | /
35 | / | 10 | 2 | -8
36 | i | / | 3 | -10

Going on with the list.
item | smiles | HIV Env fusion | MT1-MMP act inh | MT1-MMP act inh RFP | PABP polyA inh
37 | CC(C)C(=O)NCCc1nc(-c2ccc(Cl)cc2)no1 | -47 | 1 | -1 | /
38 | CCCCn1c(-c2csc3ccccc23)n[nH]c1=S | -20 | -5 | -1 | -5
39 | COc1ccc([C@@H]2CC(=O)c3c(O)cc(O[C@@H]4O[C@H](CO[C@@H]5O[C@@H](C)[C@H](O)[C@@H](O)[C@H]5O)[C@@H](O)[C@H](O)[C@H]4O)cc3O2)cc1O | -10 | 2 | 3 | 6
40 | O=C(COC(=O)C1CC(=O)N(Cc2ccccc2)C1)Nc1cccc([N+](=O)[O-])c1 (stereo not drawn) | -6 | -1 | 2 | /
41 | Cc1noc(C)c1C(=O)NCc1ccco1 | -46 | -1 | 3 | 2
42 | CS(=O)(=O)N1CCc2cc(NC(=O)c3ccc(Cl)cc3Cl)ccc21 | 4 | 4 | -7 | -1
43 | COc1ccc(Nc2cc(C)nc3ncnn23)cc1Cl | -10 | -5 | 5 | -3
44 | CC(NS(=O)(=O)c1ccc([N+](=O)[O-])cc1)C(=O)NN (stereo not drawn) | 8 | 0 | -1 | 7
45 | CCOc1cc(/C=N/NC(=O)CN2CCCCC2)ccc1O | 7 | 4 | 3 | 1
46 | Cc1cc(NS(=O)(=O)c2ccc(NC(=O)Cc3cccs3)cc2)no1 | / | -4 | 1 | 7
47 | COc1ccc(C(=O)C2CCCN(C(=O)c3cccnc3OC)C2)cc1F (stereo not drawn) | 2 | -3 | -4 | 0
48 | COc1ccc(CCNC(=O)c2cccc3ccccc23)cc1OC | 9 | 0 | 0 | 5

item | Rce1 inhib | eIF4H FP inh | CSC inhib | Yeast UUG start
37 | i | / | -4 | -6
38 | i | -10 | / | -19
39 | i | 26 | 5 | -21
40 | / | / | 16 | 14
41 | i | -7 | -2 | 7
42 | i | -11 | 14 | /
43 | i | -9 | -3 | 13
44 | i | -1 | -2 | -16
45 | i | 3 | -8 | -3
46 | i | -1 | -9 | 9
47 | i | 9 | -8 | -3
48 | i | -5 | 1 | 7

Random excerpt: 4 compounds from above, in no set order.
item | smiles | HIV Env fusion | MT1-MMP act inh | MT1-MMP act inh RFP | PABP polyA inh
44 | CC(NS(=O)(=O)c1ccc([N+](=O)[O-])cc1)C(=O)NN (stereo not drawn) | 8 | 0 | -1 | 7
48 | COc1ccc(CCNC(=O)c2cccc3ccccc23)cc1OC | 9 | 0 | 0 | 5
43 | COc1ccc(Nc2cc(C)nc3ncnn23)cc1Cl | -10 | -5 | 5 | -3
41 | Cc1noc(C)c1C(=O)NCc1ccco1 | -46 | -1 | 3 | 2

item | Rce1 inhib | eIF4H FP inh | CSC inhib | Yeast UUG start
44 | i | -1 | -2 | -16
48 | i | -5 | 1 | 7
43 | i | -9 | -3 | 13
41 | i | -7 | -2 | 7

(further entries)
item | smiles | HIV Env fusion | MT1-MMP act inh | MT1-MMP act inh RFP | PABP polyA inh
49 | Oc1cccc2c(NC(=S)Nc3ccc(SC(F)F)cc3)cccc12 | -17 | -26 | 2 | 4
50 | COc1ccc(C2C(C(=O)c3ccc(C)o3)=C(O)C(=O)N2CC2CCCO2)cc1OC (stereo not drawn) | -38 | 3 | 6 | 5
51 | Cc1cc(C)nc(SCc2ccc(C(=O)N/N=C/c3ccc(C(=O)O)cc3)cc2)n1 | -10 | 0 | 1 | -1
52 | COc1cc2c(cc1OC)-c1nnc(-c3cccs3)n1C(C)(C)C2 | -7 | -1 | 2 | /
53 | COc1cccc(NC(=O)Cn2c(SCC(=O)N3CCOCC3)nc3ccccc32)c1 | -108 | 2 | -3 | 4
54 | CCOC(=O)C(NC(=O)c1ccccc1)=C1C=C(C)OC(C)=C1 | / | 1 | 11 | 10
55 | Cn1c(NCCCN2CCOCC2)nc2c1c(=O)n(Cc1ccc(Cl)cc1Cl)c(=O)n2C | 63* | 1 | -7 | 3
56 | Cc1c(Cl)cnc(NC(=O)COC(=O)c2cccc(S(=O)(=O)N3CCc4ccccc4C3)c2)c1Cl | 6 | 0 | 2 | -6
57 | CC(=O)Nc1ccc(NC(=O)[C@@H](NC(=O)c2cccc(C)c2)C(C)C)cc1 | 6 | 3 | 2 | 1
58 | Cc1cc([N+](=O)[O-])nn1CCC(=O)Nc1nccs1 | 0 | 1 | 2 | 3
59 | COc1cc(S(=O)(=O)N2CCC(c3nc4ccccc4s3)CC2)ccc1S(=O)(=O)NC1CCCC1 | / | 3 | -15 | -2

item | Rce1 inhib | eIF4H FP inh | CSC inhib | Yeast UUG start
49 | i | ? | -14 | /
50 | i | -2 | -4 | -11
51 | i | 16 | -7 | /
52 | i | / | -19 | 16
53 | i | -6 | -6 | /
54 | i | 6 | -11 | -9
55 | i | -5 | -13 | -6
56 | i | 26 | -11 | -11
57 | i | -5 | -18 | -12
58 | i | -3 | -4 | /
59 | i | -6 | 7 | 0
